# Screening results as filed in PubChem BioAssay.
# Rango release inh: inhibition of RanGTP-driven Rango-importin beta dissociation | Biochemical FRET Rango-importin beta, RanGTP-induced dissociation | Potency, µM (highest dose often 46.1 µM), inactives show at the highest dose activity change, negative = inhibition | 340,000 compounds, 0.071% hits | AID 540253; active means falling FRET ratio curve, often poorly fitted, with flat reads before Ran was added; inconclusive means other falling curves, or compound fluorescence or quenching; inactive means flat or rising ratio curve;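 also: potency is read from the fitted curve at half-maximal effect; % of control where 0% means no effect; nearly all actives have a fitted effect of over 45% in size; -100% = wells without RanGTP and RCC1; the record marks most hits as doubtful in a second field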
#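 Compounds preincubate 5 min with complex of recombinant Rango and importin beta in PBS with 1 mM DTT. Ran (0.6 uM) loaded with 2 mM GTP plus 0.2 uM RCC1 starts dissociation; FRET is recorded 45 min later.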
# miR-21 FLuc: raises the signal of a miR-21 reporter; HeLa miR-21 FLuc reporter, luciferase, 48 h; Potency, µM (series often up to 38.3 µM), inactives show at the highest dose reporter change, positive = more light; 340,000 tested, under 10 active; AID 2288; active = well fitted rising curve with a large enough effect; inconclusive = small, poorly fitted or top-dose-only effect; inactive = no such curve, though single readings can be large or run the other way;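 also: % of control where 0% means no effect; miR-21 action dims this reporter so a rising signal means less miR-21 action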
#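 HeLa cells endogenously expressing miR-21, stably carrying CMV-driven firefly luciferase with a downstream miR-21 binding site, 2000 cells/well. Titrations up to approximately 40 uM, 48 hours; luciferase luminescence read.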
# GLA inh pH 4.5: alpha-galactosidase A (human) inhibition, pH 4.5 | AID 1467 | 230,000 tested, under 10 active | P06280 | purified enzyme, 4-MU-alpha-Gal fluorescence, pH 4.5 | activity change, negative = inhibition, % at 105 µM; inconclusive = small, poorly fitted or top-dose-only inhibition, or a rising curve; inactive = flat fitted curve, though single readings scatter; no compound was filed as active;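 also: 0% = full activity with enzyme and -100% = basal without enzyme; dose as in the result columns while the protocol names 77 µM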
# Rango complex inh: inhibitors of Rango-importin beta complex formation; Q14974; Rango CFP/YFP FRET sensor + importin beta, 45 min; Potency, µM (series often up to 92.2 µM), inactives show at the top dose inhibition of complex formation; 340,000 compounds, 0.031% hits; active = rising FRET ratio curve, often small or poorly fitted; inconclusive = mostly compound fluorescence or quenching in the first reads; inactive = flat curves in all reads;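 also: potency is read from the fitted curve at half-maximal effect; 0% = DMSO wells and 100% = buffer wells lacking importin beta; nearly all actives have a fitted effect of over 15% in size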
# Target sequence (Q14974 whole entry, looked up): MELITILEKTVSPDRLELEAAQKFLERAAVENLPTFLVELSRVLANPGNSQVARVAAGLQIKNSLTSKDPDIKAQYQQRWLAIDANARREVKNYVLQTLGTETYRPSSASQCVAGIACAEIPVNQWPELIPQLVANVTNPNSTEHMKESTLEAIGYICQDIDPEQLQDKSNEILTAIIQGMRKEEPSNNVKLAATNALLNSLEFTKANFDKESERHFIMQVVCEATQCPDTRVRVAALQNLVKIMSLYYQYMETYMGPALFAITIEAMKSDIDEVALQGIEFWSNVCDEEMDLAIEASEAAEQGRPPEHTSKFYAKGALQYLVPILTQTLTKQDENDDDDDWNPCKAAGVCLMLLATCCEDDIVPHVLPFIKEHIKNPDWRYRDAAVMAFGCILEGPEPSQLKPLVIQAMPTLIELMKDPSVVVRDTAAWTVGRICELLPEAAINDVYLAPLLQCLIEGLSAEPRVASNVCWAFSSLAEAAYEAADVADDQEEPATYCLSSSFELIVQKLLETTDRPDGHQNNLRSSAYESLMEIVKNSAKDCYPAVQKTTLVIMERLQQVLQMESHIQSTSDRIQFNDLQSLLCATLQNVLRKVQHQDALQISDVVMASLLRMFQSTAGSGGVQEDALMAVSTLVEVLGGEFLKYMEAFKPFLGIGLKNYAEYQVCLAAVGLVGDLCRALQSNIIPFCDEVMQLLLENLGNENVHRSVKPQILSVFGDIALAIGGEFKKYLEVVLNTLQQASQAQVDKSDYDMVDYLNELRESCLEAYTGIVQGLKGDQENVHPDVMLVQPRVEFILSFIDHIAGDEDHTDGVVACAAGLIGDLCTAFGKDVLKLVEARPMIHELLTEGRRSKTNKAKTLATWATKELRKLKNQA
#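 FRET biosensor Rango (snurportin 1 IBB between N-terminal EYFP and C-terminal Cerulean), 50 nM in PBS/1 mM DTT/0.02% Tween-20/0.1% BSA, preincubated 5 min RT with compound; 0.125 microM importin beta added, 45 min RT, CFP/YFP FRET ratio read.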
# Starred values were filed as active, the others as inactive; ? = inconclusive; . = not tested or not shown; & = joins results of further samples. An excerpt; the hit share may differ from the screen's.
molecule,Rango release inh,miR-21 FLuc,GLA inh pH 4.5,Rango complex inh
CCc1ccc(C(C)NC(=O)c2ccc(F)cc2)cc1 (centres undefined),-22%,-7%,-1,-3.7%
CC(C)(C)OC(=O)N(Cc1ccccc1)Cc1ccccc1OCc1cccc(NC(=O)C2CC2)c1,-9%,.,.,-0.3%
CCOC(=O)N1CCN(S(=O)(=O)N(C)C)CC1,-1%,-3%,11,?
OC(COCc1ccccc1)CN1CCN(c2ccccc2)CC1 (centres undefined),23%,-1%,7,-0.3%
COC1CCN(Cc2c(C(=O)N3CCN(C4CCCCC4)CC3)nc3ccccn23)CC1,?,-7%,.,?
Cc1cc2ccccn2c1C(=O)c1ccccc1Br,6%,20%,.,-0.9%
CC(NC(=O)c1cc(-c2ccncc2)nc2ccc(Br)cc12)C1CCCO1 (centres undefined),16%,3%,.,-0.1%
C=C(C)Cn1c(CCCNC(=O)C(C)(C)C)nc2ccccc21,-19%,-2%,-9,0.3%
CCCCSc1cc(C)nc2ncnn12,7%,-11%,14,0.8%
CC(C)(CC(=O)OCC(=O)Nc1ccccc1F)CC1=NS(=O)(=O)c2ccccc2N1,-8%,10%&24%,.,3.3%
O=C(Nc1nc(-c2cc(F)ccc2F)cs1)C1=NN(c2ccccc2)C(=O)CC1,2%,0%,-13,0.2%
CC1=C(C(=O)OCC(C)C)C(c2cc3c(cc2Br)OCO3)NC(=O)N1C (centres undefined),-11%,-4%,-8,-0.5%
Cc1nn(Cc2ccccc2)c2c1C(c1ccc(Cl)cc1)C(C#N)=C(N)O2 (centres undefined),-4%,10%,9,12%
CCN(CC)CCCNc1oc(-c2cccc(Cl)c2)nc1C#N,-13%,-21%,11,3.2%
O=C(CSc1ccccc1Cl)c1ccco1,4%,-39%,7,-2.8%
Cc1c(C)n(CC(O)CN2CCOCC2)c2ccccc12 (centres undefined),0%,-9%,-6,-3.8%
O=C(CCc1ccccc1Cl)NC1CCCN(c2ccc(C(F)(F)F)cn2)C1 (centres undefined),-16%,0%,.,0.1%
CCCCn1c(N)c(N(CCOC)C(=O)CCCc2nc3ccccc3c(=O)[nH]2)c(=O)[nH]c1=O,16%,.,.,2.4%
CC(OC(=O)C1CCCCC1)C(=O)Nc1cccc(Cl)c1 (centres undefined),2%,6%,5,1.6%
CN(C)S(=O)(=O)c1cccc(NC(=O)CCc2nc3sc4c(c3c(=O)[nH]2)CCCC4)c1,7%,.,.,1.1%
Cc1ccc(C)c(C(=O)CCC(=O)NNC(=O)Cn2nc(C)cc2C)c1,19%,.,.,-4.8%
O=C(c1ccco1)N1CCC(n2nnc3ccccc32)CC1,1%,-2%,-4,-0.9%
C#CC(CC)(CC)NC(=S)Nc1cccc(C(C)=O)c1,-8%,1%,-8,1.8%
C=CCON1C(=O)C(=O)N(OCC=C)[C@H]2CCCC[C@H]21,15%,-2%,-1,0.2%
CCOc1ccccc1N(C(=O)CNC(=O)c1ccco1)C(C(=O)NC(C)(C)C)c1ccncc1 (centres undefined),4%,0%,-3,0.0%
OCCN1CCN(C(=S)c2ccc(-c3ccccc3)cc2)CC1,1%,?,8,0.7%
Cc1ccc(OC(=O)c2c(C)nn(-c3ccccc3)c2C)cc1,10%,-59%,-12,-11%
CC(C)CNC(=O)C(=O)Nc1ccc2c(c1)N(S(=O)(=O)c1cccs1)CCC2,7%,.,.,1.8%
COc1ccc2occ(C(=O)c3cccs3)c2c1,1%,-57%,-8,-4.6%
O=C(OCc1ccccc1)N1CCC2CC1c1cc(Cl)ccc12 (centres undefined),-6%,.,.,4.1%
Cc1cc2[nH]c3c(c[n+](C)c4ccccc34)c2cc1C,-9%,?,-2,?
CCC(C)NCC(=O)Nc1sc2c(c1C(N)=O)CCC2 (centres undefined),4%,-22%,-1,9.3%
C=CCNC(=O)c1onc(CSc2cccc(OC)c2)c1C(=O)O,-9%,-16%,1,-3.3%
O=C(Nc1cccc(NC(=O)c2ccco2)c1)c1cnccn1,-8%,-4%,-10,-0.9%
CCN(CC)CCn1nc2c3c(cccc3c1=O)-c1ccccc1-2,-10%,?,5,2.3%
CCOC(=O)c1c(C)[nH]c(C)c1C(=O)COC(=O)c1cc(OC)c(OC)cc1OC,-9%,-12%,4,0.1%
CCOC(=O)CC(=O)CSc1nc2c(c(-c3cccs3)c1C#N)CCC2,21µM*,-3%,-3,?
COC(=O)c1ccc(N)c(N=CC2=C(O)CC(C)(C)CC2=O)c1,?,-55%,-2,?
COC(=O)CN1C(=S)N(c2ccc(OC)cc2)C(=O)C1CC(=O)Nc1ccc(F)cc1 (centres undefined),8%,-2%,-15,-1.1%
Fc1ccc(CSc2ccc3nnc(-c4ccccn4)n3n2)cc1,-9%,5%,-3,4.9%
Cc1ccccc1N1C(S)=C(C#N)C(=O)NC1c1ccco1 (centres undefined),1%,6%,-3,-5.3%
C#CCOCCOCCOCCNc1nc(N2CCOCC2)nc(N2CCN(C(=O)CCCCCCCCCCNC(=O)[C@@H](CCC(=O)O)n3cc(CCCCCN)nn3)CC2)n1,9%,.,.,0.3%
CC(C)NC(=O)N1CCN(c2ccncc2S(=O)(=O)N2CCCCC2)CC1,-25%,-3%,.,1.0%
Clc1cccc(NCc2nnc(SCc3ccc(Cl)cc3Cl)o2)c1,-11%,-8%,-1,-0.1%
CCCCC1C(C#N)=C(C)NC2=C1C(=O)CC(C)(C)C2 (centres undefined),?,7%,12,?
CCN1C(=O)[C@H]2[C@@H](c3ccc(-c4ccc5c(c4)OCO5)c(OC)c3)N[C@@](Cc3ccccc3)(C(=O)OC)[C@H]2C1=O,12%,.,.,0.1%
COc1ccc(CCNC(=O)C2CC(=O)N(c3ccc(C(C)(C)C)cc3)C2)cc1OC (centres undefined),-15%,-6%,-8,-3.4%
O=C(NNC(=O)c1ccc(O)cc1O)c1ccc(-c2ccccc2)cc1,24%,6%,.,3.7%
Cc1c(NC(=O)CSc2nc3ccccc3c(=O)n2C(C)C)c(=O)n(-c2ccccc2)n1C,-2%,.,.,-0.7%
CC1CCCCN1S(=O)(=O)c1ccc(C(=O)Nc2nnc(-c3ccccc3Cl)o2)cc1 (centres undefined),-3%,0%,-3,-3.4%
Cc1ccc(NC(=O)c2ccc(=O)n(CC(=O)Nc3ccccc3)n2)cc1,?,-3%&-6%,.,7.7%
CCCn1c(C2CC(=O)N(c3cc(OC)ccc3OC)C2)nc2ccccc21 (centres undefined),5%,9%,-1,-1.6%
CC(C)c1ccc(-c2c(C#N)c(N)nc(SCC(=O)N3CCCCC3)c2C#N)cc1,6%,-4%,3,1.7%
COC(=O)c1cc(S(=O)(=O)N2CCCCC2)ccc1N1CCOCC1,-10%,.,.,?
CCOC(=O)N1CCN(C(=O)Nc2cccc3ccccc23)CC1,9%,0%,3,2.8%
N#CC(c1ccccc1)c1ccc2c(C(F)(F)F)cc(C(F)(F)F)nc2n1 (centres undefined),-16%,?,0,?
COc1ccc(CCNC(=O)c2ccc(N(C)S(=O)(=O)c3ccccc3)cc2)cc1,6%,0%,-2,4.9%
CCOC(=O)C(NC(=O)c1ccccc1OCC)(Nc1ncccn1)C(F)(F)F (centres undefined),0%,-18%,-7,-4.6%
CCN(CC(=O)Nc1c(F)cccc1F)C(=O)c1ccccn1,12%,.,.,1.4%
CCOP(=O)(OCC)c1nc(Cc2ccccc2)oc1NCc1ccccc1,-11%,3%,0,-0.1%

# Continued.
molecule,Rango release inh,miR-21 FLuc,GLA inh pH 4.5,Rango complex inh
Cc1ccccc1OCC(=O)OCC(=O)NCC1CCCCC1,-14%,.,.,-5.0%
NS(=O)(=O)c1ccc(CCNC(=O)C2CCCO2)cc1 (centres undefined),-7%,-1%,.,-6.2%
O=C(Cn1c(N2CCN(c3ccccc3)CC2)nc2ccccc21)c1ccccc1,6%,0%,4,2.8%
CCOC(=O)Cn1c(-c2nonc2NC(=O)c2ccccc2F)nc2ccccc21,-12%,23%,3,-2.6%
CCOc1cc(C)c(-c2onc(C(F)(F)F)c2-c2csc(C)n2)c(O)c1,-2%,?,6,1.7%
O=C1c2nc3cc(-c4ccccc4)[nH]n3c(=O)c2CN1Cc1ccccc1,-27%,-1%,10,?
Cc1cccc2cc3c(NC(=O)CC(C)C)nn(C)c3nc12,?,7%,4,?
O=C(CN(C(=O)c1csnn1)c1cccc2ccccc12)NC1CCCC1,-2%,-3%,-9,2.5%
O/C(=C\Sc1nnc(Cc2ccccc2)o1)c1ccc(F)cc1,-20%,0%,-2,?
CSc1ncc(C(=O)Nc2ccccc2)cn1,2%,-7%,.,-2.7%
COc1ccccc1NC(=O)CSc1nnc(CC(=O)Nc2ccccc2)n1C,-4%,-1%,-9,-2.6%
Cc1ccc(-c2csc(NC(=O)/C=C/c3cccs3)n2)cc1C,-11%,0%,-21,3.6%
O=C(C1COc2ccccc2O1)N1CCCC1 (centres undefined),-1%,-11%,0,-2.4%
Cc1ccc(C(=O)NCCC(=O)NCc2ccco2)cc1,26%,-2%,.,2.6%
CC(C)CC(=O)NC(=S)N1CCN(c2ccc([N+](=O)[O-])cc2Cl)CC1,-2%,5%,-3,-1.3%
NCCCC[C@@H]1NC(=O)c2cc([N+](=O)[O-])cc(I)c2SC[C@@H](C(N)=O)NC(=O)[C@H](Cc2ccc(O)cc2)NC1=O,7%,-2%,7,-1.1%
CCOc1c(C#N)c(C#N)c2nc(C)cc(C)n12,?,-4%,4,?
CC(C)NC(=O)C1CCN(C(=O)N(C)C)CC1,-14%,-4%,1,-1.9%
CCN(CC)S(=O)(=O)c1ccc(C(=O)NCCOC(=O)c2ccc(F)cc2F)cc1,10%,0%,.,3.9%
COc1ccc(-n2nnnc2CNC(=O)c2ccc3ccccc3c2)cc1,6%,.,.,3.9%
COc1ccc(/C=N/n2c(-c3ccco3)nc3ccccc3c2=O)cc1,-9%,-12%,-4,-2.6%
Cc1ccc(NC(=O)CN(C)C(=O)CSc2nnc(C(F)(F)F)n2C)cc1,8%,0%,5,-0.1%
CCC(C)/C(C)=N/NC(=O)c1cn(-c2ccccc2)nc1-c1ccccc1 (centres undefined),8%,-10%,-2,?
CCCc1nc2c(o1)CC(CC(C)SCC)CC2=O (centres undefined),0%,-6%,-1,-0.2%

# Retrieved by compound from above:
molecule,Rango release inh,miR-21 FLuc,GLA inh pH 4.5,Rango complex inh
Cc1ccc(C(=O)NCCC(=O)NCc2ccco2)cc1,26%,-2%,.,2.6%
CC(C)NC(=O)C1CCN(C(=O)N(C)C)CC1,-14%,-4%,1,-1.9%
O=C(C1COc2ccccc2O1)N1CCCC1 (centres undefined),-1%,-11%,0,-2.4%
COc1ccc(/C=N/n2c(-c3ccco3)nc3ccccc3c2=O)cc1,-9%,-12%,-4,-2.6%
Cc1ccc(NC(=O)CN(C)C(=O)CSc2nnc(C(F)(F)F)n2C)cc1,8%,0%,5,-0.1%

# Continued.
molecule,Rango release inh,miR-21 FLuc,GLA inh pH 4.5,Rango complex inh
COc1ccc(-n2nc(C(=O)NCC(=O)N(C)Cc3ccccc3)c3ccccc3c2=O)cc1OC,-9%,11%,.,0.9%
O=C(c1ccc([N+](=O)[O-])s1)N1CCN(c2ccccn2)CC1,9%,8%,.,-5.9%
Nc1ccccc1NC1=CC(=O)CC(c2ccccc2)C1 (centres undefined),.,-24%,-4,.
O=C(COC(=O)[C@@H]1CCCN1C(=O)c1cccs1)NCCc1ccccc1,-10%,-5%,-1,-5.2%
Cc1cc(C)c2ccc3c(C)c(C)nc3c2[nH]1,?,0%,-10,?
Cc1cc(C(C)(C)C)ccc1OCCn1ccnc1,15%,-2%,0,-0.7%
Cc1ccc(NC(=O)c2ccc(CNc3c(N4CCOCC4)c(=O)c3=O)cc2)cc1,-16%,-5%,1,0.1%
